# HCMV UL50-53 inh – cytomegalovirus nuclear egress complex inhibition; inhibition, % (test concentration not listed); HTRF UL50-UL53 interaction, normalized percent inhibition; actives 0.15% (n = 190,000);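 active = both replicates at 50% or more, plus weaker picks with an unusually low signal ratio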;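 also: stock transfer was 100 nL into about 20 µL; 0% = negative control wells and 100% = wells with untagged competitor protein; inactives centre near -12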
# Sa growth 42C – blocks Staphylococcus aureus growth | S. aureus RN4220 growth, OD600, 20 h, 42 °C; hits give low values | AID 720641 | actives 0.53% (n = 170,000) | relative growth, % (concentration not given with the values);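 active = growth at 42 °C up to 50% and 20 or more points under that at 30 °C, or under 10% at both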;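 also: 300 nL library stock went into each well; scaled to the means of positive and negative controls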
# GIV Gai3 FP – blocks GIV peptide binding to rat Galpha-i3 | percent of control (FP), % (concentration not given with the values) | actives 0.42% (n = 210,000) | Galpha-i3/FITC-GIV peptide fluorescence polarization, 90 min; hits give low values; scaled: aluminum fluoride 0%, vehicle 100% | P08753;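 active = replicate mean at 85% of control or lower, very high polarization wells dropped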;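 also: wells of about 15 µL received 100 nL stock; the first replicate is given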
# Target sequence (P08753 whole entry, looked up): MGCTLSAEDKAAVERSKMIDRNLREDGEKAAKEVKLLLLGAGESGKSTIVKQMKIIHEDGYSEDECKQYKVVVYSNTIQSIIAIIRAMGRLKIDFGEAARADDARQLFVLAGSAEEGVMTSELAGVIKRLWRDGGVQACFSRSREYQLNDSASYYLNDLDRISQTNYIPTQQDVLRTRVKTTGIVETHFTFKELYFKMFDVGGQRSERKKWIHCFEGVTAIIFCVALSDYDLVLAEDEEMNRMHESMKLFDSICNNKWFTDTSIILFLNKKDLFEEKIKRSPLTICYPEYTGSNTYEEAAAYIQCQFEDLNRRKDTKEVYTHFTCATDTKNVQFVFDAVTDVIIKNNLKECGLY
# Sa growth 42C second temp – further read-out of Sa growth 42C, marked with its call; relative growth, %; measured here: growth at 30 °C;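 optical density after 20 h as mean of two plates; 100% = untreated growth and lower means inhibition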
# The depositor's hits bear a star; nt = no result given; & = joins results of further samples.
SMILES,HCMV UL50-53 inh,Sa growth 42C,Sa growth 42C second temp,GIV Gai3 FP
Cc1c(C(=O)N(Cc2ccc(Cl)cc2)CC2CCCO2)oc2ccc(F)cc12 (configuration not stated),-19&-17,111,87,100&96
OC1CCCCC1N1CCC(c2ccccc2)C1 (configuration not stated),-10,94,89,96
CCOC(=O)c1oc2ccccc2c1CN1CCC(C(N)=O)CC1,-29,92,85,100
CCOc1cc(C2C3=C(CCCC3=O)OC3=C2C(=O)CCC3)ccc1OCC(=O)O,-32,90,84,101
Cc1ccc(N2COc3ccc(Cl)cc3C2)cc1,-38,45,47,nt
Cc1ccc(OCC(=O)NCc2ccc(C(=O)O)cc2)cc1C,-27,108,99,109
CCCc1cc(=O)n2nc(N3CCCC3C(=O)NCc3ccc(OC)cc3)sc2n1 (configuration not stated),-15,nt,nt,97
O=C(Cc1ccccc1)OC1OCCOC1OC(=O)Cc1ccccc1 (configuration not stated),5,108,96,nt
C=CCn1c(SC(C)C)nc2sc3c(c2c1=O)CCCC3,-14,104,84,106
Cc1cc(C)c2c(c1)-c1cc(C)nn1C(c1ccc(N3CCOCC3)cc1)N2 (configuration not stated),-31,80,57,98
CCOC(=O)c1c(C)c(C(=O)NCCc2ccc(S(N)(=O)=O)cc2)c(C)n1CC,-9,nt,nt,103
COC(=O)c1ccc(C=Nc2ccc3oc(-c4ccc(N(C)C)cc4)nc3c2)cc1,-10,111,89,103
O=C1CCC(=O)N1C(c1ccccc1)c1ccccc1,-8,112,93,99
O=C(CSCc1cccc(F)c1)NCc1ccccc1,nt,120,92,98
C1=C(c2ccccc2)NN=C(/N=C/c2ccco2)S1,-4,95,97,nt
COc1ccc(-c2cc(C(=O)N3CCN(S(=O)(=O)c4ccc(C(C)(C)C)cc4)CC3)[nH]n2)cc1,-9,nt,nt,106
Cc1ccc(CCNC(=O)Cc2noc3ccccc23)cc1,nt,91,83,99
O=C(NCCN1C(=O)S/C(=C\c2ccccc2F)C1=O)C1Cc2ccccc2CN1C(=O)c1ccco1 (configuration not stated),-6,122,100,nt
O=c1c2ccccc2nc2oc3ccccc3n12,-15,101,98,103
CC(=O)Nc1c(C#N)c(C)n(-c2ccccc2)c1C(=O)c1ccccc1,8,112,120,102
CCOC(=O)c1c(S(=O)(=O)N2CCCC(C(=O)N3CCN(c4ccc(F)cc4)CC3)C2)c(C)n(C)c1C (configuration not stated),nt,93,89,104
c1ccc(C(c2ccccc2)N2CCN(Cc3nnnn3Cc3ccc4c(c3)OCO4)CC2)cc1,-26,96,92,104
Cc1noc(C)c1CSc1nnc(-c2ccc(Br)cc2)n1C1CCCCC1,15,101,84,nt
CC1(C)CC(=O)C=C(NCC(O)c2ccccc2)C1 (configuration not stated),17,97,121,96
CC(C)n1c(=O)[nH]c2cc(-c3noc(CN4C(=O)COc5ccccc54)n3)ccc21,-12,nt,nt,103
# (more compounds)
SMILES,HCMV UL50-53 inh,Sa growth 42C,Sa growth 42C second temp,GIV Gai3 FP
CCN(C(=O)c1sc2nc3n(c(=O)c2c1C)CCCC3)c1ccccc1F,-21,93,103,96
COC(=O)C(OC(=O)c1cnn2c(C(F)(F)F)cc(-c3ccccc3)nc12)c1ccccc1 (configuration not stated),-24,nt,nt,108
COC(=O)c1cc(=O)[nH]c2ccccc12,-4,106,98,105&108
CC(NC(C(=O)O)c1ccccc1)c1ccccc1 (configuration not stated),-9,106,95,nt
O=C(O)CCS(=O)(=O)Cc1ccccc1Cl,nt,119,91,101
C/C(=N\NC(=O)Cc1cc(=O)[nH][nH]1)c1cccs1,-45,85,72,100
COc1cc(-c2nnc(SCC(=O)NC3CCCC(C)C3C)o2)cc(OC)c1OC (configuration not stated),8,94,100,nt
OCCCc1nc2n(n1)C(c1cccc(Cl)c1)C=C(c1ccccc1)N2 (configuration not stated),nt,95,88,89
CC(C)CCNC(=O)C1CCCN(S(=O)(=O)c2ccc3nc(-c4ccccc4)[nH]c3c2)C1 (configuration not stated),66,nt,nt,100
CCCn1cc(S(=O)(=O)c2cccc(Cl)c2)c(=O)c2cc(F)c(N3CCN(CC)CC3)cc21,nt,91,86,110
CCCCc1ccc(NC(=O)C=C(C)C)cc1,-4,85,66,106
CC(=O)Nc1nonc1-c1nc2ccccc2n1CCCC#N,-15,96,89,113
Cc1ccc(-n2nc(C(=O)NC(C)CCc3ccccc3)c3c4ccccc4n(C)c3c2=O)cc1 (configuration not stated),nt,97,92,103
O=c1cc(CN2CCc3ccccc3C2)nc2nc(-c3ccc(Cl)cc3)[nH]n12,-28,nt,nt,98
CCOc1cc(C2C3=C(CC(C)(C)CC3=O)Nc3ccccc3N2C(C)=O)ccc1OC(C)=O (configuration not stated),-13,nt,nt,107
CC(C)(C)C(=O)CSc1nc2ccccc2o1,-6,104,89,nt
Cc1ccc(NCc2cc(=O)n3[nH]c(NCc4ccc(C(C)C)cc4)nc3n2)cc1C,-8,nt,nt,101
COc1ccc(C2CC(c3c(-c4ccccc4)c4cc(Cl)ccc4[nH]c3=O)=NN2C(C)=O)cc1 (configuration not stated),6,nt,nt,105
O=C1CC(c2nc3ccccc3n2C/C=C/c2ccccc2)CN1c1ccc(Cl)cc1 (configuration not stated),nt,99,89,101
CCOC(=O)C1CCCN(S(=O)(=O)c2cc(-c3onc(C)c3C)ccc2OC)C1 (configuration not stated),nt,108,77,103
NC(=O)C1CCN(C(=O)c2cccc(CN3C(=O)c4ccccc4C3=O)c2)CC1,-43,94,86,nt
CC(Oc1ccccc1)C(=O)N1c2ccccc2CC1C (configuration not stated),-17,93,97,105
CCOC(=O)N1CCN(C(=O)c2ccc(CS(=O)(=O)c3ccc(OC)cc3)o2)CC1,-3,122,103,99
Cc1c(C(=O)N2CCN(Cc3ccccc3)CC2)sc2ncnc(N3CCN(c4ccccn4)CC3)c12,-12&-8,nt,nt,103&98
CCC1CCCCN1C(=O)c1ccc2c(c1)N(Cc1cccc(Cl)c1)C(=O)c1ccccc1S2(=O)=O (configuration not stated),nt,121,89,105

# Laid out differently: results already given
# Under each structure: HCMV UL50-53 inh	Sa growth 42C	Sa growth 42C second temp	GIV Gai3 FP
CCN(C(=O)c1sc2nc3n(c(=O)c2c1C)CCCC3)c1ccccc1F
→ -21	93	103	96
COC(=O)C(OC(=O)c1cnn2c(C(F)(F)F)cc(-c3ccccc3)nc12)c1ccccc1 (configuration not stated)
→ -24	nt	nt	108
COC(=O)c1cc(=O)[nH]c2ccccc12
→ -4	106	98	105&108
CC(NC(C(=O)O)c1ccccc1)c1ccccc1 (configuration not stated)
→ -9	106	95	nt
O=C(O)CCS(=O)(=O)Cc1ccccc1Cl
→ nt	119	91	101
C/C(=N\NC(=O)Cc1cc(=O)[nH][nH]1)c1cccs1
→ -45	85	72	100
COc1cc(-c2nnc(SCC(=O)NC3CCCC(C)C3C)o2)cc(OC)c1OC (configuration not stated)
→ 8	94	100	nt
OCCCc1nc2n(n1)C(c1cccc(Cl)c1)C=C(c1ccccc1)N2 (configuration not stated)
→ nt	95	88	89
CC(C)CCNC(=O)C1CCCN(S(=O)(=O)c2ccc3nc(-c4ccccc4)[nH]c3c2)C1 (configuration not stated)
→ 66	nt	nt	100
CCCn1cc(S(=O)(=O)c2cccc(Cl)c2)c(=O)c2cc(F)c(N3CCN(CC)CC3)cc21
→ nt	91	86	110
CCCCc1ccc(NC(=O)C=C(C)C)cc1
→ -4	85	66	106
CC(=O)Nc1nonc1-c1nc2ccccc2n1CCCC#N
→ -15	96	89	113
Cc1ccc(-n2nc(C(=O)NC(C)CCc3ccccc3)c3c4ccccc4n(C)c3c2=O)cc1 (configuration not stated)
→ nt	97	92	103

# (continued)
SMILES,HCMV UL50-53 inh,Sa growth 42C,Sa growth 42C second temp,GIV Gai3 FP
CN(C)c1ccc(CNC(=O)CCCN2C(=O)CCn3nc(-c4cccn4C)cc32)cc1,nt,82,88,107
Cc1c(N=C/C=C2\N(C)c3ccccc3C2(C)C)c(=O)n(-c2ccccc2)n1C,-41,94,83,nt
O=c1[nH]n(-c2ccc(S(=O)(=O)N3CCCC3)cc2)c(=O)c2ccccc12,-73,73,85,103
COc1ccc(-c2noc(CSc3nnc(-c4ccncc4)n3-c3cccc(C)c3)n2)cc1OC,-8,106,87,104
CCCCn1c(=O)[nH]c(=O)c2c1nc(-c1cccs1)c(=O)n2C,-35,89,97,nt
CCC(=O)C1=C(c2ccccc2)N(C(=O)CC)n2cnnc2S1,-42,55,32,99
O=C(Nc1cc(C(F)(F)F)ccc1N1CCCCC1)c1ccncc1,-32&0,95,80,106
CCC(C(=O)Nc1nnc(C2CC2)s1)c1ccccc1 (configuration not stated),2,111,71,108
Cc1c(C(=O)Sc2ccccc2)sc2nc(C(F)(F)F)nn12,-16,101,100,101
O=C(Cc1ccc(NC(=O)N2CCCCc3ccccc32)cc1)Nc1ccc(Cl)cc1,-21,nt,nt,103
CC1CC(C)CN(C(=O)/C=C/c2ccc(Cl)cc2)C1 (configuration not stated),-15,95,86,111
Cc1ccc2ncc(S(=O)(=O)c3ccccc3)c(N3CCCCC3C)c2c1 (configuration not stated),1&-17,112,88,102&98
O=C(CC(c1ccccc1)c1ccccc1)Nc1ccc(Cl)cc1,16,90,129,nt
N#CC1=C(SCc2ccccc2)NC(=O)C(C#N)C12CCCC2 (configuration not stated),-4,161,79,nt
O=C(O)CC1(CC(=O)NCc2ccccc2F)CCCCC1,-30,99,82,101
CCN(C(=O)CSc1ncn[nH]1)c1cccc2ccccc12,14,101,100,nt
Cc1ccc(CNC(=O)c2sc3ncnc(N(C)C4CCCCC4)c3c2C)cc1,nt,132,90,98
COc1ccc2cc(C#N)c(N3CCCN(C(=O)/C=C/C(=O)O)CC3)nc2c1,-18,72,54,102
Cc1ccc(O)c(C2=Nc3ccccc3N=C(c3ccco3)C2)c1,nt,95,94,104
O=C1CCCC(O)=C1C=NCc1cccnc1,-36,88,86,100
O=C(NCCc1ccccc1)c1cnc2sc(N3CCCCC3)nn2c1=O,nt,84,92,100
Cc1ccc(NC(=O)C2CCN(S(=O)(=O)c3c(C)noc3/C=C/c3cccs3)CC2)cc1F,-32,91,80,106
CC(CC(=O)N1CCc2ccccc2C1)CC1=NS(=O)(=O)c2ccccc2N1 (configuration not stated),nt,101,90,105
Cc1ccc(OCC(=O)NCC(=O)OCc2cc(=O)n3nc(C)sc3n2)cc1,-31,102,88,102&101
Cc1nc2ccccc2n2c(-c3ccccc3)c3c(=O)n(C)c(=O)n(C)c3c12,nt,112,87,100
# The list goes on.
SMILES,HCMV UL50-53 inh,Sa growth 42C,Sa growth 42C second temp,GIV Gai3 FP
CC(C)Oc1cccc(C(=O)Nc2ccc(-c3nc4cc(Cl)cc(Cl)c4o3)cc2)c1,-12,102,90,100
CSCCSc1nnc(C)n1C1CCCCC1,-10,86,92,nt
Cc1onc(-c2c(Cl)cccc2Cl)c1C(=O)ON1C(=O)CCC1=O,8,94,94,95
COc1ccccc1CNc1nc2c(-c3cccc(C)c3)nnn2c2ccccc12,nt,84,87,96
CCOC(=O)c1ccc(NC(=O)Cn2ncc3c(C)n(Cc4ccccc4F)c(C)c3c2=O)cc1,-14,104,88,106
c1ccc2c(c1)OC1(CCCCC1)O2,-5,109,93,nt
CCOc1ccc(-c2ccc(SCc3nc(-c4ccc5c(c4)OCO5)no3)nn2)cc1,6,nt,nt,109
Cc1ccc(CNC(=O)C2CCN(S(=O)(=O)c3ccc4nc(-c5ccccc5)[nH]c4c3)CC2)cc1,nt,109,67,100
CC1CCN(C(=O)Cn2c(=O)c3ccccc3n3c(=S)sc(-c4ccccc4F)c23)CC1,-33,nt,nt,81*
N[C@@H](CO)CSCc1ccccc1,-28,97,86,105
CCOc1ccc(C2CC(=O)c3c([nH]c(C(=O)OC4CCC(C)CC4)c3C)C2)cc1 (configuration not stated),-9,106,89,101
Cc1[nH]c(C(=O)N2CCCC(C(=O)NCCCN3CCOCC3)C2)c(C)c1C (configuration not stated),-8,nt,nt,100
COc1ccc(S(=O)Cc2ccc(C(=O)N3CCN(c4cccc(C)c4C)CC3)o2)cc1 (configuration not stated),nt,115,71,108
O=C(Nc1cccc(C(F)(F)F)c1)N1CCN(Cc2ccccc2)CC1,-14,116,92,nt
O=C(Nc1nnc(Cc2ccccc2)s1)c1ccncc1,2,122,94,nt
Cc1ccc2nc(-c3ccc(NC4=CC(=O)CCC4)cc3)sc2c1,-27,104,84,nt
O=S(=O)(Nc1ccc(F)c(C(F)(F)F)c1)c1ccc(N2CCCCS2(=O)=O)cc1,nt,136,100,101
CN(C)CCOC(=O)CN1C(=O)S/C(=C/c2ccc(Br)cc2)C1=O,-77,nt,nt,113
CCN(CC)CCCNC(=O)CN1C(=O)COc2ccc(S(=O)(=O)N3CCC(C)CC3)cc21,-4,104,89,104
CCOC(=O)c1c(NC(C)=O)oc2cccnc12,-7,nt,nt,101
